Screening data (PubChem)
Tau filament bind: binders of human tau filaments; P10636; recombinant tau filaments, thioflavin S fluorescence, 15 h; filaments grown with octadecylsulfate alongside compound; Potency, µM (highest dose often 57.1 µM), without a hit: top-dose activity change, negative = inhibition; hit rate 2% among 71,000;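 also: potency is read from the fitted curve at half-maximal effect; % is scaled to controls: 0 for no effect and ±100 for the full control effect; actives lower thioflavin S fluorescence by blocking filaments or displacing dye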
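Recombinant tau protein (human, 1 uM final) plus 30 uM ODS in HEPES pH 7.4 with NaCl, DTT and thioflavine S. Compound present from the start; fluorescence at 510 nm after 15 h, 37 C.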
ERK AVP block: inhibitors of vasopressin-stimulated ERK signaling pathway; Potency, µM (highest dose often 57.5 µM), without a hit: at the highest dose activity, negative = inhibition, actives largely listed as inhibitors; HEK293-V1b, vasopressin-stimulated pERK AlphaScreen; hit rate 0.99% among 72,000; also: potency is read from the fitted curve at half-maximal effect; % is scaled to controls: 0 for no effect and ±100 for the full control effect; nearly all actives have a fitted effect of over 55% in size
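Phosphorylated ERK1/2 detected via AlphaScreen bead proximity in lysates of V1b-expressing HEK293 cells given 25 nM vasopressin for 5 min after 30 min compound exposure (37 °C). AC50 from Hill equation; basal DMSO 0%, vasopressin 100%.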
Texas Red fluor: compounds fluorescent in Texas Red spectral region | Compound fluorescence, Texas Red channel, 547/618 nm; stronger effect = higher value | max dye-equivalent concentration, M | hit rate 0.06% among 59,000; in the data active = max dye-equivalent concentration above about 10 nM; inconclusive = between about 1.1 nM and that limit
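qHTS profiling of intrinsic compound fluorescence; 100 mM Tris pH 8.0; 15 min RT; ex 547 / em 618 nm; response expressed as Texas Red dye-equivalent concentration from six-point plate standard.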
Fluorescein autfl: compound fluoresces in the fluorescein spectral region; Compound autofluorescence, 480/540 nm, fluorescein-equivalent; stronger effect = higher value; max fluorescein-equivalent concentration, M; hit rate 0.91% among 59,000; in the data active = max fluorescein-equivalent concentration above about 10 nM; inconclusive = between about 1.1 nM and that limit
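Spectral profiling of library compounds in the fluorescein window (480 nm excitation, 540 nm emission) after 15 min at room temperature in pH 8.0 Tris (100 mM). Values are dye-equivalent concentrations.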
Rhodamine autofl: rhodamine region autofluorescence; Rhodamine-region fluorescence, 547/598 nm, Tris buffer; stronger effect = higher value; max dye-equivalent concentration, M; hit rate 0.05% among 59,000; AID 594; in the data active = max dye-equivalent concentration above about 11 nM; inconclusive = between about 1.1 nM and that limit
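Steps: pin-transfer compounds into pH 8.0 Tris (100 mM), hold 15 min at room temperature, image with a 547/598 nm filter pair, and convert intensities to rhodamine-equivalent concentration using a six-point on-plate rhodamine series.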
HEK293 cAMP ctrl: raises cAMP in parental HEK293 cells, TSHR agonist counter-screen; hit rate 2.5% among 73,000; Potency, µM (top dose mostly 57.1 µM), without a hit: top-dose activation, usual class: activators; parental HEK293 CNG cAMP sensor, membrane potential fluorescence; also: potency is read from the fitted curve at half-maximal effect; % of control where 0% means no effect; nearly all actives have a fitted effect of over 55% in size
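Parental HEK 293 cells stably expressing a cAMP-gated CNG channel were loaded with membrane potential dye containing 100 uM RO 20-1724 for 60 min. Compound added for 30 min; depolarization read as fluorescence intensity at 590 nm.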
Luciferase inh: firefly luciferase inhibition | P08659 | purified firefly luciferase, luminescence, 8 min | Potency, µM (doses to about 57.1 µM), inactives show at the top dose activity change, negative = inhibition, usual class: inhibitors | hit rate 2.2% among 72,000 | AID 411; also: potency is read from the fitted curve at half-maximal effect; % is scaled to controls: 0 for no effect and ±100 for the full control effect; nearly all actives have a fitted effect of over 40% in size
Target sequence (P08659 whole entry, looked up): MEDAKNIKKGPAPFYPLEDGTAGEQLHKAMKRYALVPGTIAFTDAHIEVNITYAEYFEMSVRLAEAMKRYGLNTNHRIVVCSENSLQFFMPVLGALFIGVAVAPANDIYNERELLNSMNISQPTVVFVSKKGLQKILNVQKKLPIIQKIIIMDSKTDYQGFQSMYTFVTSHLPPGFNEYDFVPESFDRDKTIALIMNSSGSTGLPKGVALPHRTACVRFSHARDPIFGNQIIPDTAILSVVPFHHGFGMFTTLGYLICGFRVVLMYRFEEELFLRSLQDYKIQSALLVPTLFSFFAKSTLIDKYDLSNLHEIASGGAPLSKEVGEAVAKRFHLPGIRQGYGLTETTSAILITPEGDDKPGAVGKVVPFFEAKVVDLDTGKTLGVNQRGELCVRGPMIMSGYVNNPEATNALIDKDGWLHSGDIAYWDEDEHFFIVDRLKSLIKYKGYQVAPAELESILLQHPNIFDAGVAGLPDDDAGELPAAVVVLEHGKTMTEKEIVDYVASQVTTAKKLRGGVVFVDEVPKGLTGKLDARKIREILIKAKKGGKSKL
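Firefly luciferase (PKLight detection mix) with 10 uM ATP in pH 7.2 imidazole buffer (KCl, MgCl2, Tween 20, BSA). Compounds tested across a concentration series (qHTS). Luminescence read after 8 min at ambient temperature.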
Numbers without * were called inactive; i = inactive; u = inconclusive; [ ] = dose if it differs, or a comment. Unless noted, calls follow the shape of the dose curve; as a rule, active = well fitted curve in the direction sought with a large enough effect; inconclusive = small, poorly fitted or top-dose-only effect, or another doubt; inactive = no such curve, though single readings can be large; an effect the other way counts as inactive or inconclusive. Not all compounds are listed (hit frequency here may not be typical).

Key to letters: A = Tau filament bind; B = ERK AVP block; C = Texas Red fluor; D = Fluorescein autfl; E = Rhodamine autofl; F = HEK293 cAMP ctrl; G = Luciferase inh
#1 C=C1CC[C@H](O)C/C1=C/C=C1\CCC[C@]2(C)[C@H]1CC[C@H]2[C@@H](C)CCCC(C)C
  A: 6%[25.6 µM]	B: 3%[25.7 µM]	C: i	D: u	E: i	F: -1%[25.6 µM]	G: 4%[25.5 µM]
#2 CCCn1c(CCC(=O)O)ccc1-c1ccc(OC)cc1
  A: 352%	B: -24%	C: u	D: i	E: i	F: 12%	G: -2%
#3 O=c1c(O)c(-c2ccc3c(c2)OCO3)oc2ccccc12
  A: 68%	B: -19%	C: i	D: i	E: i	F: -1%	G: -2%
#4 NC(=O)c1cc(-c2ccccc2)nc(N2CCCCCC2)n1
  A: -16%	B: 8%	C: i	D: i	E: i	F: 16%	G: 0%
#5 O=c1c(CCc2ccccc2)nc2cnc(N3CCOCC3)nc2n1-c1ccccc1
  A: 54%	B: 16%	C: i	D: i	E: i	F: u	G: 0%[11.4 µM]
#6 CCCCn1c(NC(=O)c2ccccc2Cl)c(C#N)c2nc3ccccc3nc21
  A: 120%	B: 15%	C: i	D: u	E: i	F: 4%	G: 0%
#7 Cn1c(=O)c(-c2cc(F)cc(F)c2)nc2cnc(Oc3cccc(Cl)c3)nc21
  A: 10µM*	B: u	C: i	D: i	E: i	F: 18%	G: 1%[11.4 µM]

Filtered by structure: those above with a halogen.
Key to letters: A = Tau filament bind; B = ERK AVP block; C = Texas Red fluor; D = Fluorescein autfl; E = Rhodamine autofl; F = HEK293 cAMP ctrl; G = Luciferase inh
#6 CCCCn1c(NC(=O)c2ccccc2Cl)c(C#N)c2nc3ccccc3nc21
  A: 120%	B: 15%	C: i	D: u	E: i	F: 4%	G: 0%
#7 Cn1c(=O)c(-c2cc(F)cc(F)c2)nc2cnc(Oc3cccc(Cl)c3)nc21
  A: 10µM*	B: u	C: i	D: i	E: i	F: 18%	G: 1%[11.4 µM]

Part of the list above, showing only ERK AVP block, Texas Red fluor and HEK293 cAMP ctrl:
nr | structure | ERK AVP block | Texas Red fluor | HEK293 cAMP ctrl
1 | C=C1CC[C@H](O)C/C1=C/C=C1\CCC[C@]2(C)[C@H]1CC[C@H]2[C@@H](C)CCCC(C)C | 3%[25.7 µM] | i | -1%[25.6 µM]
2 | CCCn1c(CCC(=O)O)ccc1-c1ccc(OC)cc1 | -24% | u | 12%

Reformatted: results already given
The line under a structure holds: Tau filament bind, ERK AVP block, Texas Red fluor, Fluorescein autfl, Rhodamine autofl, HEK293 cAMP ctrl, Luciferase inh
3) O=c1c(O)c(-c2ccc3c(c2)OCO3)oc2ccccc12
  68%, -19%, i, i, i, -1%, -2%
4) NC(=O)c1cc(-c2ccccc2)nc(N2CCCCCC2)n1
  -16%, 8%, i, i, i, 16%, 0%
